VDR inhibitor – inhibitors of human vitamin D receptor | VDR-SRC2-3 peptide fluorescence polarization, 2 h | P11473 | Potency, µM, for inactives: max response, negative = inhibition, most hits filed as inhibitors | 0.93% of 400,000 active; active means well fitted inhibition curve with a large enough effect; inconclusive means small, poorly fitted or top-dose-only effect, or another doubt; inactive means no such curve, though single readings can be large or run the other way; further: series mostly up to about 120 µM
Target sequence (P11473 whole entry, looked up): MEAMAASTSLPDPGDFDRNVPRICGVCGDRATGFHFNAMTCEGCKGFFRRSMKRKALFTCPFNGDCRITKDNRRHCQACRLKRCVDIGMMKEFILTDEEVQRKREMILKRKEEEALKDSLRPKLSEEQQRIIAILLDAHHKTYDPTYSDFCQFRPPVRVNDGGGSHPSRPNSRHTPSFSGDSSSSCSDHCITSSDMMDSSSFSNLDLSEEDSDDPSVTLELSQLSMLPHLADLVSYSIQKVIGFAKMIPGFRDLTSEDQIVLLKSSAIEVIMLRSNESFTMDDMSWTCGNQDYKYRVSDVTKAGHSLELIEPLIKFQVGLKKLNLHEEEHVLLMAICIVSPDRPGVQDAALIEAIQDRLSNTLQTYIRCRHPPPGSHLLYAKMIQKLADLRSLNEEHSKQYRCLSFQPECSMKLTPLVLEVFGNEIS
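FP read-out; VDR + SRC2-3 coactivator peptide; 23 nl compound by pintool; 2 h RT incubation; reagents held at 4 deg C, protected from light.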
* hit, by the source's call; ? = inconclusive. On the % scale 0 is the no-effect control and ±100 the full control effect; potency means the concentration at half of the fitted maximal effect.

SMILES | VDR inhibitor
O=C(CSc1ccccc1C(=O)N1CCN(c2ccccc2)CC1)N1CCCC1 | -11%
C/C=C/c1ccc(OCC(O)CNCC(c2ccc(OC)cc2)N(C)C)c(OC)c1 (stereo not drawn) | 2%
COc1ccc(NC(=O)c2cc3cc(C)ccc3[nH]2)cc1 | -2%
O=C(OC(C(=O)NCc1cccs1)c1ccccn1)c1cccs1 (stereo not drawn) | -12%
CCOc1ccc(NC(=O)c2c(NC(=O)c3ccccc3F)sc3c2CCC3)cc1 | 12%
CC(C)(C)NC(=O)C(=O)NNC(=O)c1ccccc1Br | -16%
CC[C@H](C)[C@H](N)C(=O)N[C@@H](CCCNC(=N)N)C(=O)N[C@@H](CCC(N)=O)C(=O)NCC(=O)N1CCC[C@H]1C(=O)N[C@@H](CCCCN)C(=O)N[C@@H](CCC(=O)O)C(=O)N1CCC[C@H]1C(=O)N[C@@H](Cc1ccccc1)C(=O)N[C@@H](CCCNC(=N)N)C(=O)N[C@@H](CC(=O)O)C(=O)N[C@@H](Cc1ccc(O)cc1)C(=O)N[C@H](C(=O)N[C@@H](CC(=O)O)C(=O)N[C@@H](CCCNC(=N)N)C(=O)N[C@@H](Cc1ccccc1)C(=O)N[C@@H](Cc1ccc(O)cc1)C(=O)N[C@@H](CCCCN)C(=O)N[C@H](C(=O)N[C@@H](CC(C)C)C(=O)O)[C@@H](C)O)C(C)C | 3%
Cc1ccc(S(=O)(=O)Nc2ccc(SC(F)F)cc2)c(C)c1 | 2%
CCC1CCC/C1=N\NC(=O)c1cc(C)[nH]n1 (stereo not drawn) | -2%
Cc1ccc(S(=O)(=O)N(CC(=O)Nc2cccnc2)c2cccc([N+](=O)[O-])c2)cc1 | 7%
CCN(C[C@H]1N[C@@](CC)(C(=O)OC)[C@H]2C(=O)N(C)C(=O)[C@@H]12)S(=O)(=O)c1ccc(C)cc1 | -13%
CCCN1CCc2nc(N3CCN(C)CC3)ncc2C1 | -1%
COc1cc(OC)cc(C(=O)OCC(=O)N(C)c2ccccc2)c1 | -6%
N#Cc1ccccc1/C=N/Nc1nc(-c2ccccc2)c2cc(Cl)ccc2n1 | -19%
O=[N+]([O-])c1cc(C(F)(F)F)ccc1NCCCN1CCOCC1 | 15%
C=CCNC(=O)c1onc(CSc2cc(C)cc(C)c2)c1C(=O)NCC=C | -10%
C/C(=N\NC(=O)COc1ccc(C)cc1C(C)C)c1ccc(-n2ccnc2)cc1 | -1%
C/C(Cn1cnc([N+](=O)[O-])n1)=N/NC(=O)COc1ccccc1Cl | -10%
COC(=O)C1=C(c2ccccc2)c2ccccc2S(=O)(=O)N1CC(=O)Nc1cc(C)ccc1C | 12%
CCNc1nc(NC(C)(C)C)nc(N2CCCC2)n1 | 20%

The listing continues:
SMILES | VDR inhibitor
COc1ccc(-c2nc(N3CCN(S(=O)(=O)c4ccc(F)cc4)CC3)c3ccccc3n2)cc1 | -22%
N#Cc1ccc(CSc2nc3c(c(=O)[nH]2)CCCC3)cc1 | 11%
Cc1ccccc1-c1cccc(CN2CCN(C)C(CCO)C2)c1 (stereo not drawn) | 0%
COCCCN1C(=O)C(O)=C(C(=O)c2ccc(C)o2)C1c1cccc(Br)c1 (stereo not drawn) | ?
COC(=O)c1sccc1NC(=O)c1ccccc1 | -6%
COCCn1c(SCC(=O)c2c[nH]c3ccccc23)nnc1-c1ccncc1 | -9%
COc1ccc(C(C(=O)NCc2ccccc2)N(C(=O)Cn2nnc3ccccc32)c2cccc(OC)c2)cc1 (stereo not drawn) | 8%
O=C1CCC(C(=O)N(CCO)Cc2ccccc2)CN1CC1CCCCC1 (stereo not drawn) | -9%
CC1CCN(S(=O)(=O)c2cc(C(=O)NCc3ccc(F)cc3)n(C)c2)CC1 | -9%
CO/N=C/c1ccc(Sc2ccc(C)cc2)c([N+](=O)[O-])c1 | -8%
COC(=O)C(CC(C)C)NC(=O)c1cccs1 (stereo not drawn) | -10%
O=C(CN1C(=O)C2CCCCC2C1=O)N1CCN(c2ccc(F)cc2)CC1 (stereo not drawn) | 12%
C=CCn1c(N2CCOCC2)nc2c1c(=O)[nH]c(=O)n2C | ?
Cc1cccc2nc(CSc3nc4[nH]ncc4c(=O)n3-c3ccccc3Cl)cc(=O)n12 | -2%
O=C([C@H](O)c1ccccc1)N1CCC[C@H]1CO | -10%
CC(=O)c1c(C)oc2ccc(NS(=O)(=O)c3ccc(O)c(C(=O)O)c3)cc12 | -17%
Nc1ccn(CC(=O)N[C@H](CO)Cc2c[nH]c3ccccc23)c(=O)n1 | -23%
CCCCn1c(N)c(N(C)C(=O)c2c(C)nn(-c3ccccc3)c2C)c(=O)[nH]c1=O | -11%
NNC(=O)c1cc2ccccc2[nH]1 | -2%
Fc1cccc(/C=N/NC(=S)Nc2ccccc2Cl)c1 | -8%

Additional compounds:
SMILES | VDR inhibitor
CSc1cccc(NC(=O)CSc2ccc(Cl)cc2)c1 | -6%
COc1ccc(-c2cc(C(=O)Nc3ccc(Cl)cc3Cl)c3ccccc3n2)cc1OC | -10%
O=C(/C=C/c1ccc(Cl)cc1)N1CCOCC1 | -5%
Cc1ccc(Nc2ncc(C(=O)N3CCN(c4ccc(F)cc4)CC3)c3ccccc23)cc1Cl | -3%
CN(C)CCCN=Cc1c(O)n(Cc2ccccc2)c(=O)c2ccccc12 | 5%
COc1ccc(NC(=S)NC(=O)c2cncc(Br)c2)c(OC)c1 | -1%
COC(=O)c1ccc(NC(=O)C2CC2)o1 | -18%
CCN(C(=O)c1cccnc1)c1ccccc1 | 1%
Cc1nc2nc(SCC(=O)NCCCN3CCCCCC3)nn2c(C)c1Cc1ccccc1Cl | -1%
O=C(C[C@H]1C/C=C\C[C@@H](Cc2ccc(F)cc2)C(=O)OC[C@H]2CCCN2C1=O)N[C@H](CO)Cc1ccccc1 | 11%
CC12CCC(c3c(C(=O)O)nn(-c4ccccc4)c31)C2(C)C (stereo not drawn) | 17%
CS(=O)(=O)CCCCN=C=S | ?
COC(=O)c1ccc(NC(=O)CCc2c(C)nc3c(c2C)c(=O)n(C)c(=O)n3C)cc1 | -8%
CCc1ccc(NC(=O)c2ccc3c(c2)N(Cc2ccc(C)cc2)CCS3)cc1 | -12%
NC1=NCCCC1 | 1%
CC1O[C@@H](O[C@H]2C(Oc3cc(O)c4c(c3)OC(c3ccc(O)cc3)CC4=O)OC(CO)C(O)C2O)C(O)C(O)C1O (stereo partly drawn) | 14%
Cc1onc(-c2ccccc2)c1C(=O)NC1CC1 | 6%
CCN(CC(=O)Nc1ccc2c(c1)OCCO2)CC(=O)Nc1ccc2c(c1)OCO2 | 0%
Cc1cnc(NS(=O)(=O)c2ccccc2)c(Br)c1 | 4%
O=C(CSc1cccc[n+]1[O-])Nc1ccc2c(c1)OCCO2 | 2%

A different layout for some results above:
NC1=NCCCC1
  VDR inhibitor: 1%

COc1ccc(-c2nc(N3CCN(S(=O)(=O)c4ccc(F)cc4)CC3)c3ccccc3n2)cc1
  VDR inhibitor: -22%

CO/N=C/c1ccc(Sc2ccc(C)cc2)c([N+](=O)[O-])c1
  VDR inhibitor: -8%

COC(=O)C(CC(C)C)NC(=O)c1cccs1 (stereo not drawn)
  VDR inhibitor: -10%

The list continues:
SMILES | VDR inhibitor
COc1ccc(S(=O)(=O)NCC(=O)N(CC(=O)NCC2CCCO2)Cc2ccccc2)cc1 (stereo not drawn) | -9%
COc1ccc(C(=O)CC(=O)C(=O)Nc2ccc(C)cc2Cl)cc1 | -20%
CNC(=O)CSc1ncnc2c1cnn2-c1ccccc1 | -13%
CC1CCCCN1C/C=C/c1ccccc1[N+](=O)[O-] (stereo not drawn) | -4%
COc1cccc(Nc2nnc(SCC(=O)N3CCOCC3)s2)c1 | -6%
CC(=O)c1c(C)[nH]c(C(=O)COC(=O)Cc2ccccc2F)c1C | -19%
Cc1ccnc(N2CCCC(C(=O)Nc3ccc(C)c(C)c3)C2)n1 (stereo not drawn) | -1%
CCOC(=O)C1=C(C)NC2=C(C(=O)C(C(=O)OCC)C(c3ccc(OC)cc3)C2)C1c1ccccn1 (stereo not drawn) | -8%
CC(=O)c1ccc(NC(=O)CSc2ccc(-c3ccco3)nn2)cc1 | -3%
CC1=CC(=C(C#N)C#N)c2ccccc2N1C | 18%
COc1ccc(N2C(=O)CC(NC3CCCCNC3=O)C2=O)cc1 (stereo not drawn) | -13%
Cn1ccnc1SCC(=O)Nc1cccc([N+](=O)[O-])c1 | 3%
Cc1ccccc1CNCCCSc1ncccn1 | 1%
CCn1c(=N)n(CC(O)c2ccccc2)c2ccccc21 (stereo not drawn) | 25%
COc1ccc2sc(NCc3ccccc3)nc2c1 | 2%
O=c1oc2ccc(Cl)cc2nc1/C=C(\O)c1cccs1 | -2%
Cc1cccc(C)c1NC(=O)CN(C)CC(=O)Nc1ccccc1Br | 7%
OCC1(CCCc2ccccc2)CCN(Cc2cc(F)ccc2F)CC1 | -6%
O=C(Nc1c(C(=O)Nc2cccc3ccccc23)cnn1-c1ccccc1)c1ccco1 | 1%
COc1cc(CNCc2cccnc2)ccc1OCc1ccccc1 | -5%

Part of the list above in order of length of the SMILES, lowest first.
SMILES | VDR inhibitor
CNC(=O)CSc1ncnc2c1cnn2-c1ccccc1 | -13%
COc1ccc(NC(=S)NC(=O)c2cncc(Br)c2)c(OC)c1 | -1%
C/C(=N\NC(=O)COc1ccc(C)cc1C(C)C)c1ccc(-n2ccnc2)cc1 | -1%

Carrying on:
structure | VDR inhibitor
O=C1CCCC/C1=C\Nc1ccccc1C(=O)O | 2%
Clc1ccc2nc(-c3cccs3)c(Nc3ccc4c(c3)OCCO4)n2c1 | -23%
Cc1ccc(C)c(OCCC(=O)Nc2ccc3c(c2)OCO3)c1 | -5%
COc1ccc(S(=O)(=O)NNC(=O)c2sccc2-n2cccc2)cc1 | 12%
CCOC(=O)C(C)Sc1nnc2c3ccccc3n(C)c2n1 (stereo not drawn) | -2%
Cc1nnc(NC(=O)CSCc2cc(=O)c3cc(Cl)ccc3[nH]2)s1 | 11%
COc1cc(/C=N/NC(N)=S)ccc1OCC(=O)N1CCOCC1 | -8%
COC(=O)[C@@]12CCCN1[C@H](c1ccc(SC3CCCCC3)cc1)[C@H]1C(=O)N(C)C(=O)[C@H]12 | -18%
O=c1c2ccccc2ncn1-c1ccc(Cl)cc1Cl | 4%
CN(CCc1ccccn1)C(=O)CCC1CCCN(C(=O)c2c3c(nn2C)CCCC3)C1 (stereo not drawn) | ?
COc1ccc(CN2CCN(CCSc3ccc(C)cc3)CC2)c(OC)c1OC | 10%
Cc1cc(-c2ccc(S(=O)(=O)Nc3ccccc3F)s2)on1 | -1%
CCN1CCN(S(=O)(=O)c2ccc(Cl)c(C(=O)N(C)Cc3ccccc3)c2)CC1 | 10%
CCN(CC)S(=O)(=O)c1cccc(C(=O)NNC(=O)c2ccc3[nH]c(=O)c(=O)[nH]c3c2)c1 | 3%
Cc1ccc(S(=O)(=O)/N=C/c2cc(Br)ccc2O)cc1 | 16%
CN(C)CC1CCCCC1C1(O)c2ccccc2CSc2sccc21 (stereo not drawn) | -5%
C[C@H]1CCC[C@]2(O[C@H](CCO)C[C@H](O)[C@H]2O)O1 | -17%
COc1ccc(OCC(=O)Nc2c3c(nn2C(C)(C)C)CSC3)cc1 | 2%
CCNC(=S)NCc1ccc2[nH]c(C)cc2c1 | -13%
O=C(Oc1cccc(-n2cnnn2)c1)c1ccccc1 | -10%
O=C1C2CCCCN2C(=O)N1CCCCN1CCN(c2ccc(F)cc2)CC1 (stereo not drawn) | -4%
Cc1cccc(NC(=O)CCNS(=O)(=O)c2ccc3c(c2)CCCC(=O)N3)c1C | 8%
CCCNc1nc(=S)n(-c2ccccc2)c(C)c1C(C)=O | 4%
COc1ccc(C(=O)NCc2ccc3c(c2)CCN3C(C)=O)c(OC)c1 | 6%
Cc1ccc(NC(=O)O/N=C2\CCCCC2c2ccc([N+](=O)[O-])cc2[N+](=O)[O-])cc1 (stereo not drawn) | -15%

As entered above:
VDR inhibitor result of `COc1cc(/C=N/NC(N)=S)ccc1OCC(=O)N1CCOCC1` is entered as -8%
VDR inhibitor result of `COc1ccc(CN2CCN(CCSc3ccc(C)cc3)CC2)c(OC)c1OC` is entered as 10%

More structures:
structure | VDR inhibitor
COc1ccc(C(=O)OC2C(OC)OCC(O)C2O)cc1 (stereo not drawn) | 1%
O=C1CN=C(Nc2cccc(C(F)(F)F)c2)N1C1CCCC1 | 2%
Cc1nonc1NC(=O)CSc1nnc(-c2ccoc2C)n1CC(C)C | -13%
COc1cccc(-c2nn(C)c3sc(C(=O)NCc4ccc(C)o4)cc23)c1 | ?
COc1ccc(OC)c(NC(=O)COC(=O)CCNc2ccccc2OC)c1 | -1%
C=CC(=O)c1ccc(CCCCCC)cc1 | 40µM*
CCCN(CC(=O)Nc1ccccc1OC)C(=O)CCC(=O)c1ccc(F)cc1 | -22%
Cc1ccc(CNC(=O)CN(C(=O)C2(C)CC(=O)N=C3C=CC=CN32)c2ccccc2F)cc1 (stereo not drawn) | -5%
O=C(NCc1nnc(SCC(=O)N2CCCC2)o1)c1c(F)cccc1Cl | -10%
CCOc1ccc(CN(C)C(=O)CNC(=O)c2ccc3ccccc3c2)cc1OC | -16%
O=C(CCC(=O)N1CCN(c2ccc(F)cc2)CC1)c1ccccc1 | -13%
COc1cccc(-c2ocnc2C(=O)Nc2ccc3c(c2)CCC3)c1 | 7%
CC(NC(=O)c1cc2c(cc1Cl)N1CCCCCC1=NS2(=O)=O)c1ccc(S(N)(=O)=O)cc1 (stereo not drawn) | 19%
COC(=O)c1ccc(NC(=O)c2cccc(Cl)c2)o1 | -1%
CCCCNS(=O)(=O)NC(=O)C1=C(N2CCCC2)COC1=O | -4%
COc1ccc(NC(=O)CSc2cn(CCNC(=O)c3ccc(OC)cc3)c3ccccc23)cc1 | 11%

High-throughput results from PubChem.

These rows are one share of the data, so the mix of outcomes need not match the whole.
